Compound activity as filed in PubChem BioAssay.
TDP1 cell CPT = DT40-hTDP1 cell growth loss with CPT | chicken DT40 Tdp1-/-;hTDP1 cells + 20 nM CPT, ATP luminescence, 48 h | Potency, µM (series often up to 46.2 µM), for the others: at the highest dose activity change, negative = growth inhibition, actives largely listed as inhibitors | 420,000 compounds, 12% hits; active means well fitted inhibition curve with a large enough effect; inconclusive means small, poorly fitted or top-dose-only effect; further: nearly all actives have a fitted effect of over 55% in size
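Cell growth measured by CellTiter-Glo luminescence after a minimum 48 h, 37 C compound exposure with 20 nM CPT in Tdp1-knockout DT40 cells stably expressing hTDP1, seeded 400/well; qHTS titration format.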
* marks the source's active call; other numbers are inactive results; ? = inconclusive. On the % scale 0 is the no-effect control and ±100 the full control effect; potency means the concentration at half of the fitted maximal effect. Not all compounds are listed, and most or all hits are left out here.

SMILES	TDP1 cell CPT
CCn1c(=O)cc(OCC(=O)Nc2ccc(OC)c(OC)c2)c2ccccc21	5.6%
COc1cc(S(=O)(=O)NC2CCCC2)ccc1-n1cnnn1	13.1%
C=CCCCCc1nc2ccccc2c(=O)n1N	-15.0%
CCOC(=O)C1=C(C)NC2=C(C(=O)CC(C)(C)C2)C1c1coc2ccccc2c1=O (stereo not drawn)	6.7%
O=C(Cc1ccccc1Cl)Nc1ccc(S(=O)(=O)N2CCOCC2)cc1	-4.3%
Cc1ccc(Cl)cc1NC(=O)CNC(=O)N1CC(=O)Nc2ccccc21	-3.1%
Cc1ccc(S(=O)(=O)Nc2ccccc2F)cc1C(=O)NCCCN1CCCC1=O	-13.0%
CN(C)S(=O)(=O)c1ccc2c(c1)nc(CCC(=O)NCC1CCCCC1)n2C	-3.4%
CCN(CC)c1ccc([N+](=O)[O-])cc1C(=O)O	-13.3%
CN(C)S(=O)(=O)N1CCN(c2ccc([N+](=O)[O-])c(NC3CC3)c2)CC1	-6.1%
CN(C)/C=C/C(=O)c1ccc(S(=O)(=O)c2ccccc2)cc1	6.6%
NC(=O)COC(=O)c1cccc(S(=O)(=O)N2CCN(c3ccc(F)cc3)CC2)c1	4.1%
O=C(NCc1cccs1)C(NS(=O)(=O)c1cccc2nsnc12)c1ccccc1 (stereo not drawn)	-9.8%
COc1ccc(NC(C)=O)cc1S(=O)(=O)NC(Cc1ccccc1)C(=O)O (stereo not drawn)	0.8%
Cc1cc(C)n2c(SCC(=O)NCc3ccco3)nnc2n1	-12.6%
CCC1Oc2ccccc2N(CC(=O)NCCCN2CCN(Cc3ccccc3)CC2)C1=O (stereo not drawn)	-28.8%
COc1ccc(S(=O)(=O)N2CCCCC2)cc1NC(=O)C1CCCO1 (stereo not drawn)	5.9%
CS(=O)(=O)N(CC(=O)N1CCN(Cc2ccccc2)CC1)c1ccc2c(c1)OCCO2	-19.3%
Cc1ccc(C(=O)N/C(=C/c2cccs2)C(=O)NCCCn2ccnc2)cc1	8.1%
Cn1c(=O)c(S(=O)(=O)C(C)(C)C)c(O)c2ccccc21	-2.6%

Compounds listed so far that contain a Cl atom, in the order listed:
SMILES	TDP1 cell CPT
O=C(Cc1ccccc1Cl)Nc1ccc(S(=O)(=O)N2CCOCC2)cc1	-4.3%
Cc1ccc(Cl)cc1NC(=O)CNC(=O)N1CC(=O)Nc2ccccc21	-3.1%

Next section:
SMILES	TDP1 cell CPT
COc1ccc(OC)c(C2C(C(=O)c3cccs3)=C(O)C(=O)N2CCN(C)C)c1 (stereo not drawn)	3.6%
Cc1ccc(S(=O)(=O)N(C)CC(=O)OCC(=O)Nc2ccccc2)cc1	-1.3%
Cc1ccc(C(=O)NCCCNCCCNC(=O)c2ccc(C)nc2)cn1	-3.8%
O=C(CSc1nnc(COc2ccccc2)n1Cc1ccco1)Nc1ccc2c(c1)OCCO2	-13.2%
CCOc1cc(/C=C2/NC(=O)N(CC(=O)Nc3cccc(C)c3)C2=O)ccc1O	-16.7%
COc1ccccc1NCCC(=O)OCC(=O)NCc1ccco1	-5.1%
O=C(CCC(=O)Nc1ccccc1)NNC(=O)c1cccs1	9.0%
O=C(CCNC(=O)c1ccccc1)NCC1CCCCC1	-2.0%
N#CCSc1nnc(-c2ccc(S(=O)(=O)N3CCOCC3)cc2)n1CC1CCCO1 (stereo not drawn)	-1.8%
COc1cccc(N2C(=O)C3CCCN3C2c2ccc(N(C)C)cc2)c1 (stereo not drawn)	-12.2%

Some of the entries so far, as labelled records:
O=C(CCC(=O)Nc1ccccc1)NNC(=O)c1cccs1
  TDP1 cell CPT: 9.0%
O=C(CCNC(=O)c1ccccc1)NCC1CCCCC1
  TDP1 cell CPT: -2.0%
N#CCSc1nnc(-c2ccc(S(=O)(=O)N3CCOCC3)cc2)n1CC1CCCO1 (stereo not drawn)
  TDP1 cell CPT: -1.8%
COc1cccc(N2C(=O)C3CCCN3C2c2ccc(N(C)C)cc2)c1 (stereo not drawn)
  TDP1 cell CPT: -12.2%

Next records:
SMILES	TDP1 cell CPT
Cc1ccc(NC(=O)C2CC(=O)N/C(=N/N=C/c3ccco3)S2)cc1 (stereo not drawn)	5.7%
COc1ccc(CCNC(=O)c2nonc2N)cc1OC	-2.6%
Nc1nc(NCCOCCO)nc(NCC2CCCO2)c1[N+](=O)[O-] (stereo not drawn)	-13.2%
Cc1ccc(N/C=C/C(=O)c2ccc(C)cc2)cc1	-24.7%
COC(=O)C1CCN(C(=O)COC(=O)C2CCN(S(=O)(=O)c3ccc4c(c3)OCCO4)CC2)CC1	-23.2%
Cc1nn(CC(=O)O)c(C)c1NC(=O)c1cccs1	-4.7%
Cc1ccc(N2C(=O)NC(NC(=O)C(C)(C)C)(C(F)(F)F)C2=O)cc1 (stereo not drawn)	1.0%
COc1ccc(N2C(=O)c3ccccc3NC23CCCC3)cc1	-5.6%
N#Cc1nc(-c2ccco2)oc1NCCN1CCOCC1	-11.2%
C/C=C\C=C\C(=O)N1CC2(CC(c3cccc(NC(=O)/C(C)=C\C)c3)=NO2)C[C@H]1C(N)=O (stereo partly drawn)	1.6%
CCc1nn(CC(=O)NC(C)CCc2ccccc2)c(=O)c2cc3cc(F)ccc3n12 (stereo not drawn)	?
CCOc1ccc(NC(=O)C2CC(C)=C(C)CC2C(=O)O)cc1 (stereo not drawn)	-12.5%
CS(=O)(=O)c1ccc(C(=O)NCC(c2ccco2)N2CCCCC2)cc1 (stereo not drawn)	-0.5%

Looked up above.
TDP1 cell CPT with `Cc1ccc(N2C(=O)NC(NC(=O)C(C)(C)C)(C(F)(F)F)C2=O)cc1` (stereo not drawn) is entered as 1.0%
TDP1 cell CPT with `COc1ccc(S(=O)(=O)N2CCCCC2)cc1NC(=O)C1CCCO1` (stereo not drawn) is entered as 5.9%
TDP1 cell CPT with `N#Cc1nc(-c2ccco2)oc1NCCN1CCOCC1` is entered as -11.2%
TDP1 cell CPT with `COc1ccc(NC(C)=O)cc1S(=O)(=O)NC(Cc1ccccc1)C(=O)O` (stereo not drawn) is entered as 0.8%
